# CSC inhib = cancer stem cell viability inhibitors, primary screen, luminescence. 1.1% of 300,000 active. inhibition, % at 7.5 µM. cancer stem cell-like cells viability;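 active = mean at 75% or more and at least half the replicates too; tested in HMLE shEcad cells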;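 also: 0% = median of negative and 100% = median of positive control wells; the first replicate is given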
# HIV Env fusion = inhibitors of HIV-1 Env-driven cell-cell fusion, primary screen, HeLa-JRFL effector, CEM21 target cells, luciferase; inhibition, % at 12.3 µM; 1.1% of 360,000 active; AID 651610, 2012;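 active = mean replicate inhibition score of at least 50 and every replicate individually at or above 50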;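 also: 0% = plate neutral controls and 100% = maraviroc near 300 nM; one replicate is shown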
# Rce1 inhib = yeast Rce1p protease inhibitors, primary screen, biochemical, fluorescence, cell-free homogeneous | calls only | CAAX prenyl protease 2 (Saccharomyces cerevisiae (strain ATCC 204508 / S288c)), Q03530 | yeast membranes, quenched prenylated peptide cleavage fluorescence | 0.27% of 290,000 active;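 active = fall in fluorescence gain of 50% or more versus controls, with final raw signal at or below 3038400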;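 also: plate controls were neutral control wells for no effect and wells lacking membranes for full effect; tested at 10 µM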
# Target sequence (Q03530 whole entry, looked up): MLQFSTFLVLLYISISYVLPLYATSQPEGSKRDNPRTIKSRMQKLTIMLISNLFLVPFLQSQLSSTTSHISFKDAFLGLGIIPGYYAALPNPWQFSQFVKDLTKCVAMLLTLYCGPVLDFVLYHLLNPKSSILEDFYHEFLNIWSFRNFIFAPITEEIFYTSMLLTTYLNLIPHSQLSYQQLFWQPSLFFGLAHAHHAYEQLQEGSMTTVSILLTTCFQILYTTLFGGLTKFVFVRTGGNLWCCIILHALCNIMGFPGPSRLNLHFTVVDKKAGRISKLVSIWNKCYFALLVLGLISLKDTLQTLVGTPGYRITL
# MT1-MMP act inh = blockers of MT1-MMP proenzyme processing, primary screen, HT1080 RFP-PRO-GFP cells, GFP/RFP fluorescence; Matrix metalloproteinase-14 (Homo sapiens), P50281; GFP/RFP ratio fluorescence, overnight; percent of plate control window, DMSO zero; GFP/RFP ratio change, % at 20 µM; 0.061% of 360,000 active;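 active = GFP/RFP ratio change of at least 30% with cell ATP level not reduced by more than half and red fluorescence within 50% of control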; also: strong numbers were not always called active
#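 Compound: 20 µM single dose, 1% DMSO / System: HT1080 RFP-PRO-GFP cells / Controls: DMSO and RFP-L50D-GFP cell wells / Read-out basis: GFP/RFP fluorescence ratio / Schedule: overnight compound exposure at 37 °C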
# PABP polyA inh = PABP poly(A) RNA binding inhibitors, primary screen, biochemical, fluorescence polarization, uHTS; Polyadenylate-binding protein 1 (Homo sapiens), P11940; inhibition, % at 35 µM; 1% of 290,000 active;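 active = 50% or more with normal probe brightness, or confirmed in later tests; about a fifth of its hits are not listed in these tables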;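 also: calls also rest on retests at 20 µM and on dose response follow-up; controls were probe without protein and protein plus probe with vehicle; some compounds called inactive have numbers as strong as hits; many hits fall short of the cut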
# eIF4H FP inh = human eIF4H binding inhibitors, primary screen, translation initiation inhibitor project, biochemical, uHTS, fluorescence polarization; Eukaryotic translation initiation factor 4H (Homo sapiens), Q15056; eIF4H fluorescence polarization binding assay; inhibition, % at 35 µM; 0.94% of 290,000 active; AID 2012, 2009;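 active = 50% or more with normal probe brightness, or confirmed in later tests; about a fifth of its hits are not listed in these tables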;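 also: calls also rest on retests at 20 µM and on dose response follow-up; 0% = protein and probe with vehicle and 100% = probe without protein; strong numbers were not always called active; many hits fall short of the cut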
# UUG fidelity = modulators of yeast start codon fidelity, primary screen, whole organism, S. cerevisiae, single point, plate reader | S. cerevisiae UUG-firefly luciferase reporter, luminescence/redox ratio | activity score, % at 18.7 µM | 0.13% of 350,000 active;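 active = replicate mean at a twofold rise or more, about +100% in these data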;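 also: firefly luciferase made from a UUG start codon reports start codon fidelity; reporter light over untreated wells divided by growth signal over untreated wells; some hits fall short of that in this replicate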
# MT1-MMP act inh RFP = further read-out of MT1-MMP act inh, marked with its call; RFP signal change, %; measured here: RFP expression control read;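 0 = vehicle wells; hits needed this value within 50% of zero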
# Active calls of the source: *; i = inactive; nt = no result given; & = joins results of further samples; [ ] = another dose, or the depositor's remark.
Structure	CSC inhib	PABP polyA inh	eIF4H FP inh	MT1-MMP act inh	HIV Env fusion	MT1-MMP act inh RFP	UUG fidelity	Rce1 inhib
Cc1ccc(C(=O)Oc2ccc(C(=S)N3CCOCC3)cc2)cc1	-12	9	-13	-2	0	4	-14	i
Cc1cccc(NC(=S)/N=C(\N)Nc2nc(C)c3cc(C)ccc3n2)c1	41	-1	-1	-10	nt	-10	-10	i
N/C(=N\OC(=O)CCCN1C(=O)c2ccccc2C1=O)c1ccccn1	4	-4	-10	-1	1	2	nt	i
O=C(Nc1ccc(-c2noc(-c3ccccc3F)n2)cc1)c1cccs1	7	7	-12	8	0	7	-13	i
COc1ccc(/C=C(/NC(=O)c2ccccc2)C(=O)N2CCCCC2)cc1OC	-2	-10	-4	0	4	4	-1	i
O=C(CNC(=O)c1ccccc1F)N/N=C/c1ccco1	-9	-2	-3	2	-4	6	-17	i
Cc1ccc(C(C(=O)NC2CCCC2)N(C(=O)c2csnn2)C2CCCC2)o1 (stereo not drawn)	-6	3	0	-10	18	0	-5	i
CN1/C(=C/C(=O)c2nc(S(C)(=O)=O)ncc2Cl)C(C)(C)c2ccccc21	111*	-11	-6	-11	nt	-15	nt	i
CC1ON=C(c2ccccn2)N(Cc2ccc3c(c2)OCO3)C1=O (stereo not drawn)	nt	nt	nt	2	-4	3	-19	nt
CCCS(=O)(=O)c1nc(S(=O)(=O)c2ccc(C)cc2)c(NCCN2CCOCC2)s1	6	3	0	2	nt	9	-14	i
O=C(CC(C(=O)O)c1cccc(Cl)c1Cl)c1ccccc1 (stereo not drawn)	10	4	-6	2	-11	6	-4	i
CCc1cccc(C)c1NC(=O)CN1C(=O)c2ccccc2S1(=O)=O	-4	-4	-1	4	-4	4	0	i
O=C(CCc1ccccc1)Nc1ccc(S(=O)(=O)N2CCOCC2)cc1	-10	-4	4	1	-2	1	-10	i
CCOC(=O)c1nnsc1Nc1ccc(C)c(C)c1	-7	-8	-6	-1	-36	2	nt	i
c1ccc(CSc2ncnc3sccc23)cc1	-2	-5	-1	-6	13	-6	3	i
CN(CC(=O)Nc1ccccc1Cl)C1CCCCC1	51	-10	12	0	5	-3	-12	i
CN(Cc1ccc(F)cc1)C(=O)c1cc(S(=O)(=O)N2CCCCC2)ccc1N1CCOCC1	nt	nt	nt	2	-2	-6	8	nt
O=C(O)c1ccccc1N(c1ccccc1)c1ccccc1	-13	nt	nt	2	-52	5	13	i
O=[N+]([O-])c1ccc(F)cc1OCc1nc(-c2cccs2)no1	nt	0	-5	3	-33	6	nt	i
C[C@@H]1CN([C@@H](C)CO)C(=O)c2cc(Br)cnc2O[C@H]1CN(C)C(=O)CN1CCOCC1	nt	nt	nt	-1	0[16.7 µM]	6	-10&-8	nt
CCOC(=O)C1=C(C)OC(N)=C(C#N)C1c1cc(SCC)oc1C (stereo not drawn)	8	-8	3	-1	-11	7	-6	i
COC(=O)CSc1nc2[nH]ncc2c(=O)[nH]1	-11	2	-1	-3	0	-3	nt	i
COc1ccc(CNCc2ccncc2)cc1OC	-13	9	-16	-1	-4	-1	-8	i
C/C(=N/NC(=O)c1cn(-c2cccc(C)n2)cn1)c1ccc(C)cc1	3	8	-2	0	nt	11	-29	i
COc1cccc(NC(=O)CC2Oc3ccccc3NC2=O)c1 (stereo not drawn)	13	-1	-5	-1	2	0	0	i
S=C1NC2=C(CCCC2)C2(CCCCC2)N1	-2	-9	-1	1	nt	-2	-13	i
CCS(=O)(=O)N1Cc2ccccc2CC1C(=O)Nc1nc2c(C)cccc2s1 (stereo not drawn)	27	1	-2	-40	-34	-30	-18	i
Cn1c(=O)c2cc(NC(=S)NCc3ccccc3F)ccc2n1C	nt	nt	nt	5	4	2	-14	nt
O=C(Cc1ccccc1)Nc1ccc(N2CCCC2)cc1	-9	47	6	3	nt	6	-15	i
CCOC(=O)C1CCCC(NS(=O)(=O)c2ccc(NC(C)=O)cc2)C1 (stereo not drawn)	-6	0	5	2	-18	3	-20	i
CCN(C[C@H]1N[C@@](CC)(C(=O)OC)[C@H]2C(=O)N(Cc3ccccc3)C(=O)[C@@H]12)C(=O)C1CCCCC1	-4	nt	nt	1	39	-1	-25	nt
CCOc1cc(C)ccc1OCc1nnc(SCC(=O)Nc2cccc(C(=O)O)c2)n1-c1ccccc1	-8	-2	-9	-4	12	2	-14	i
O=C(c1cccc(S(=O)(=O)N2CCOCC2)c1)N1CCC(Cc2ccccc2)CC1	nt	nt	nt	2	-41	-5	5	nt
COc1ccc2cnn(-c3ccccc3C)c(=O)c2c1OC	-7	-1	-4	-2	-56	-1	-15	i
CCc1ccc([C@@H]2CC=C(C(=O)O)[C@H](c3ccc(C(C)(C)C)cc3)N2S(=O)(=O)c2ccc(C)cc2)cc1	nt	nt	nt	-6	15	-14	-17	nt
O=C(CC1C(=O)NCCN1CC(c1ccccc1)c1ccccc1)NCCc1cn[nH]c1 (stereo not drawn)	-14	1	10	-4	0	3	-16	i
OCC[C@@H]1C[C@@H](O)[C@H](O)[C@@]2(CCc3ccccc3CO2)O1	-4	-5	-3	2	-19	5	-15	i
COc1ccccc1CNC(=O)C1Cc2ccccc2C(=O)O1 (stereo not drawn)	3	-3	-1	1	-57	4	nt	i
O=C(NCCc1csc(-c2ccccc2)n1)c1cccs1	8	-2	-2	nt	-24	nt	0	i
COc1cc(/C=C2\N=C(C)OC2=O)cc(Cl)c1OC(C)=O	-13	-6	-14	0	-26	7	-10	i
COc1cc(Nc2ncnc(N)n2)cc(OC)c1OC	7	-2	0	0	15	1	nt	i
O=S(=O)(NCc1cccnc1)c1ccc(Cl)nc1	-7	5	-4	5	nt	1	1	i
CCN(CC(=O)Nc1ccc(NC(C)=O)cc1)C(=O)c1ccc(COc2ccc(C(C)(C)C)cc2)cc1	nt	nt	nt	14	11	-28	-14	nt
O=C(NC1CCCCC1)c1cc(-n2cnnc2)ccc1Cl	-10	1	4	-4	4	-3	-17	i
Cc1cc(C)nc(SCC(=O)Nc2ccc(S(=O)(=O)NC(C)(C)C)cc2)n1	-6	4	2	4	nt	-11	5	i
COc1ccccc1C1SCCN1S(=O)(=O)c1cccc(C(F)(F)F)c1 (stereo not drawn)	-6	10	0	0	nt	-6	-6	i
CC12CCC(C(=O)N(NC(=O)c3ccccc3Cl)C1=O)C2(C)C (stereo not drawn)	-14	-3	4	-1	18	0	-7	i
O=C(Cc1ccc(NS(=O)(=O)c2ccc(Cl)c(Cl)c2)cc1)NCCN1CCOCC1	nt	nt	nt	-4	5	-2	-3	nt
CCC1Oc2ccc(C)cc2N(CC(=O)NCCCN2CCN(Cc3ccccc3)CC2)C1=O (stereo not drawn)	-2	-9	-15	5	nt	-1	0	i
CC(=O)c1sc2c(c1N)c(=O)[nH]c(=O)n2-c1ccccc1	-2	4	-6	1	4	-5	-9	i
Cc1cc(Cl)ccc1NC(=S)NCc1ccc(Cl)cc1	-5	20	-1	0	-306	3	-35	i
O=C(CC(c1ccccc1)c1ccccc1)Nc1ccc(C(=O)O)cc1	-5	2	-5	2	-12	0	-6	i
Cc1nnc(NC(=O)c2ccc(F)c(S(=O)(=O)N3CCCCC3)c2)s1	14	-2	1	-6	-20	-6	6	i
C/C(=N\Nc1cc(Cl)nc(C)n1)c1ccc(Cl)c(Cl)c1	-3	0	11	-8	nt	-3	-13	i
COC(=O)CCC(=O)NNC(=O)CCC(=O)Nc1cccc(Cl)c1C	0	-5	-1	-1	11	4	nt	i
CCc1cc2c(=O)c(-c3nc4ccccc4n3C)c(COCC(=O)O)oc2cc1OC(=O)C(C)(C)C	0	-6	-1	7	-5	1	-30	i
CCN(C(=O)CSc1nc2scc(-c3ccccc3)c2c(=O)n1C)C1CCS(=O)(=O)C1 (stereo not drawn)	6	nt	nt	-7	nt	-2	-18	nt
Cc1cc(-c2ccccc2)n2ncc(-c3ccccc3)c2n1	nt	8	-2	-3	-124	-2	nt	i
Cc1cccc(Cn2c(NCC(C)O)nc3c2c(=O)n(C)c(=O)n3C)c1 (stereo not drawn)	-6	-4	1	1	nt	-17	-6	i
CCc1ccc2c(c1)NC(=O)C2(C)Cc1ccccc1Cl (stereo not drawn)	nt	nt	nt	-5	-6	-4	-5	nt

# Reprinted at random: 5 compounds from above
Structure	CSC inhib	PABP polyA inh	eIF4H FP inh	MT1-MMP act inh	HIV Env fusion	MT1-MMP act inh RFP	UUG fidelity	Rce1 inhib
C/C(=N\Nc1cc(Cl)nc(C)n1)c1ccc(Cl)c(Cl)c1	-3	0	11	-8	nt	-3	-13	i
O=C(NCCc1csc(-c2ccccc2)n1)c1cccs1	8	-2	-2	nt	-24	nt	0	i
COc1cc(Nc2ncnc(N)n2)cc(OC)c1OC	7	-2	0	0	15	1	nt	i
CCN(CC(=O)Nc1ccc(NC(C)=O)cc1)C(=O)c1ccc(COc2ccc(C(C)(C)C)cc2)cc1	nt	nt	nt	14	11	-28	-14	nt
O=C(Cc1ccc(NS(=O)(=O)c2ccc(Cl)c(Cl)c2)cc1)NCCN1CCOCC1	nt	nt	nt	-4	5	-2	-3	nt

# 5 compounds from above, sorted by their value in MT1-MMP act inh, lowest first:
smiles	MT1-MMP act inh
C/C(=N\Nc1cc(Cl)nc(C)n1)c1ccc(Cl)c(Cl)c1	-8
COc1ccc(CNCc2ccncc2)cc1OC	-1
O=C(c1cccc(S(=O)(=O)N2CCOCC2)c1)N1CCC(Cc2ccccc2)CC1	2
Cn1c(=O)c2cc(NC(=S)NCc3ccccc3F)ccc2n1C	5
O=C(Nc1ccc(-c2noc(-c3ccccc3F)n2)cc1)c1cccs1	8

# Next section.
Structure	CSC inhib	PABP polyA inh	eIF4H FP inh	MT1-MMP act inh	HIV Env fusion	MT1-MMP act inh RFP	UUG fidelity	Rce1 inhib
O=C(C[C@H]1C(=O)N(c2ccccc2)C[C@@H]1Cc1ccccc1)Nc1ccc(Br)cc1	nt	nt	nt	1	13	-4	-10	nt
CCN(C(=O)c1cn(C)c(=O)c2ccccc12)c1ccccc1F	-5	-8	0	-1	8	-1	-10	i
O=C(NCCc1ccccc1)C(=O)c1c[nH]c2ccccc12	nt	-5	0	-1	-84	-5	-1	i
Cc1ccc(N(C)S(=O)(=O)c2ccc(C)cc2)cc1	5	-4	0	-1	-22	2	-1	i
COc1ccc(N(CCCN2C(=O)c3cccc4cccc(c34)C2=O)C(=O)c2cccs2)cc1	7	-2	5	-1	14	-5	-4	nt
CC(Sc1nnnn1-c1ccccc1)C(=O)NC1CCCC1 (stereo not drawn)	-17	nt	nt	-1	-2	1	-13	nt

# Of the compounds above, two contain bromine.
Structure	CSC inhib	PABP polyA inh	eIF4H FP inh	MT1-MMP act inh	HIV Env fusion	MT1-MMP act inh RFP	UUG fidelity	Rce1 inhib
C[C@@H]1CN([C@@H](C)CO)C(=O)c2cc(Br)cnc2O[C@H]1CN(C)C(=O)CN1CCOCC1	nt	nt	nt	-1	0[16.7 µM]	6	-10&-8	nt
O=C(C[C@H]1C(=O)N(c2ccccc2)C[C@@H]1Cc1ccccc1)Nc1ccc(Br)cc1	nt	nt	nt	1	13	-4	-10	nt

# Screening results deposited in PubChem by several laboratories.

# An excerpt; count on the stated rates, not on these rows.
